# Screening data as filed in PubChem.
# Bfl-1 A1 inh: inhibitors of the anti-apoptotic protein A1, read as caspase activation; MEF A1-2A-BIM cells, Caspase-Glo 3/7 luminescence, 3 h; percent of clofoctol response, vehicle zero; caspase activation, % (no concentration beside the values); 330,000 compounds, 0.066% hits; AID 2462;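 active means over half of replicate activation scores above 10%, or exactly half above 10 with the replicate mean above 10; inconclusive means replicate mean below 10 yet half the replicates above 10; inactive means over half of replicates below 10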;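 further: wells of about 30 µL received 50 nL stock; many hits fall short of the cut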
# Beta2AR agonist: activates human beta-2 adrenergic receptor causing internalization. P07550. Am2.2-beta2AR cells, FAP receptor internalization, flow cytometry; reference of the scale not given here. response, % (no concentration beside the values). 340,000 compounds, 0.43% hits;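 active means response above a set limit, near 3 SD of response in nonfluorescent compounds, cut at about 42% in these data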;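 further: stock transfer was 100 nL into about 11 µL; a reference agonist was the positive control; negative values mostly stem from fluorescent compounds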
# Target sequence (P07550 whole entry, looked up): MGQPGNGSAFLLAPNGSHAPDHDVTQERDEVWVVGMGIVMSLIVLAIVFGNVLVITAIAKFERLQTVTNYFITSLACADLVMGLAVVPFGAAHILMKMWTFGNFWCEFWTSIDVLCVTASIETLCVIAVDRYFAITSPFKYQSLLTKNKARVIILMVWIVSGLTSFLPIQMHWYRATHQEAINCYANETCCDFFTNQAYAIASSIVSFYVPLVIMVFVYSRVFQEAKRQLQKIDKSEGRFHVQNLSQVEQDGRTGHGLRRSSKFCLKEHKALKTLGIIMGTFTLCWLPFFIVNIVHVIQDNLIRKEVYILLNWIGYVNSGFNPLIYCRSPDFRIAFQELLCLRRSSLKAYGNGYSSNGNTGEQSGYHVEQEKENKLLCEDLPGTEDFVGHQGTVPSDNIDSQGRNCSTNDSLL
# T cruzi repl: T. cruzi replication inhibition; T. cruzi beta-gal in NIH3T3, luminescence, 90 h; inhibition, % (concentration not given with the values); 300,000 compounds, 1.4% hits; AID 1885;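 active means mean inhibition across valid replicates above about 55%, limit read from the data; inconclusive means mean below that limit but half or more replicates reach it; inactive means mean below it, under half of replicates reach it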;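 further: signal also drops with host cell toxicity which is not excluded here; 0% = plate median of DMSO wells and 100% = zero luminescence signal; higher percent means less beta-gal luminescence so fewer parasites; stock transfer was 50 nL into about 50 µL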
# LANA-H2A inh: blocks KSHV LANA binding to histone H2A/H2B; Q9QR71; cell-free LANA-H2A/H2B peptide, fluorescence polarization; inhibition, % (concentration not given with the values); 320,000 compounds, 0.6% hits; AID 2629; in the data active means inhibition mostly above about 10%, no sharp cut-off; inactive means mostly below about 6.7%;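 further: stock transfer was 7.5 nL into about 10 µL; 0% = median of vehicle wells and 100% = median of positive control wells; one replicate is shown; the record names a cut of 25% in any replicate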
# rRNA inh HTS: inhibits bacterial ribosomal RNA function over humanized ribosomes; E. coli WT GFP vs humanized-ribosome RFP mutants, fluorescence, 24 h; active compounds read low; DMSO median 0, no signal -100; GFP signal change (wild-type ribosome), % (no concentration beside the values); 350,000 compounds, 1.6% hits; AID 720706;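 active means significant combined selectivity score with lowered wild-type GFP, culture density cut under 30%, mutant RFP and density less affected; inactive means any of these conditions unmet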; further: one replicate is shown; some compounds called inactive have numbers as strong as hits
# ALR H2O2 inh: blocks human ALR sulfhydryl oxidase activity; purified ALR, DTT oxidation, H2O2 HRP-luminol luminescence; inhibition, % (test concentration not listed); 290,000 compounds, 3.8% hits;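 active means mean and each replicate at 75% or more; inconclusive means only one of the two met; inactive means neither met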;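 further: stock transfer was 7.5 nL into about 7.5 µL; 0% = neutral wells and 100% = wells with inactivated enzyme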
# Target sequence (P55789 whole entry, looked up): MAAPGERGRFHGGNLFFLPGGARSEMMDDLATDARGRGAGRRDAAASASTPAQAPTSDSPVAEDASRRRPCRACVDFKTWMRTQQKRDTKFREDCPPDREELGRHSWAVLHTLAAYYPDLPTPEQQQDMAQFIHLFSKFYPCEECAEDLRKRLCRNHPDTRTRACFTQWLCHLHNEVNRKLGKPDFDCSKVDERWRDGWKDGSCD
# Calb FLC: C. albicans growth modulation with fluconazole. C. albicans CaCi-2 (fluconazole-resistant clinical isolate) + fluconazole, Alamar Blue growth, 48 h. AID 1979. 300,000 compounds, 0.57% hits. growth inhibition, % (no concentration beside the values);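 active means most replicates above 75%; inconclusive means exactly half above 75%; inactive means most below 75%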;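 further: all wells also contain fluconazole at 8 µg/ml as a sub-toxic cotreatment; 0% = median of DMSO wells and 100% = median of geldanamycin control wells; wells of about 8 µL received 7.5 nL stock; the first replicate is given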
# Beta apoptosis: blocks beta cell apoptosis; INS-1E cytokine-induced death, ATP luminescence, 48 h; percent of positive-control rescue, neutral wells zero; protection from apoptosis, % (concentration not given with the values); 300,000 compounds, 0.8% hits;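 active means all replicates at 75% or more, or half of them and the mean; inconclusive means half reach 75% but not the mean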;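 further: 0% = cytokine-treated negative control wells and 100% = positive control rescue; higher means more ATP so stronger rescue from cytokine killing; wells of about 40 µL received 100 nL stock; the first replicate is given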
# rRNA inh HTS OD600: recorded beside rRNA inh HTS, whose call it bears; OD600 change, %; measured here: OD600 growth;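 optical density of the mix in the first replicate; 0 = DMSO median and -100 = no signal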
# rRNA inh HTS RFP: also measured in rRNA inh HTS; calls as there; RFP signal change, %; measured here: RFP humanized mutant strains;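 first replicate; 0 = DMSO median and -100 = no signal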
# Active calls of the source: *; u = inconclusive; x = no result given.
SMILES,Bfl-1 A1 inh,Beta2AR agonist,T cruzi repl,LANA-H2A inh,rRNA inh HTS,rRNA inh HTS OD600,rRNA inh HTS RFP,ALR H2O2 inh,Calb FLC,Beta apoptosis
COc1ccc(S(=O)(=O)Cc2ccc(C(=O)NCc3cccnc3)o2)cc1,0.5,-2,-9,1.1,0,5,1.3,x,4,-6
CC(C)CC(NC(N)=O)C(=O)NCCc1ccc(Cl)cc1Cl (centres undefined),0.2,-2,-13,-1.4,11,9,-2.5,-10,12,-2
COc1ccc(OC2C(=O)N(c3ccc(F)cc3)C2c2ccc(OC)c(OC)c2)cc1 (centres undefined),0.4,6,-1,0.0,-1,-2,-2.3,-3,2,-1
COC(=O)c1cc2occc2n1Cc1nc(-c2ccccc2C)oc1C,0.5,4,8,0.1,8,13,1.2,5,-7,x
Cc1cccc(CN2CCN(CCCc3ccccc3)CC2)c1,-0.2,x,63*,9.0,x,x,x,x,-7,4
Fc1cccc(CSc2ccc(-c3ccc4c(c3)OCO4)nn2)c1,-0.7,-37,13,4.5,2,2,-2.6,-5,-12,1
C/C(N)=C(/C#N)C(=O)COc1ccc(Cl)cc1Cl,0.5,1,20,2.1,-6,-6,0.1,-1,4,-3
O=C(CCS(=O)(=O)c1ccccc1)N(CCCN1CCOCC1)c1nc2ccc(F)cc2s1,5.3*,6,63*,-4.3,7,6,-0.1,28,4,11
CCc1c(C(=O)Nc2ncn(Cc3cccc(C)c3)n2)csc1C,0.7,6,23,6.4,x,x,x,-7,-12,-1
COc1ccccc1CNC(=O)c1cc(-c2ccccc2C)nn1CC1CC(c2cccnc2)=NO1 (centres undefined),-0.6,6,x,-1.1,x,x,x,-5,x,-7
O=C(Nc1ccc(C(=O)N2CCCCC2)cc1)c1cccc([N+](=O)[O-])c1,-4.4,0,16,-0.7,8,8,3.0,2,-6,3
Cc1ccc(Nc2c([N+](=O)[O-])c(=O)oc3ccccc23)cc1C,0.0,-13,1,1.5,-4,-13,4.4,-8,50,7
O=C(NCCN1CCOCC1)c1ccccc1N1C(=O)[C@@H]2Cc3c([nH]c4ccccc34)C(c3ccccc3)N2C1=O (some centres undefined),-0.7,-5,24,-4.0,18,-1,9.0,99*,0,-5
COc1ccccc1C(=O)NCC(=O)OCC(=O)N(CC(C)C)c1c(N)n(Cc2ccccc2)c(=O)[nH]c1=O,0.9,-1,-15,-0.5,10,15,2.7,0,0,-3
Cc1ccc(/C=C/S(=O)(=O)NCC(=O)OCC(=O)Nc2ccc(C(=O)N(C)C)cc2)cc1,0.0,-2,x,-3.1,15,6,1.6,10,x,-3
Cc1cc(Br)ccc1OCCN1CCCC1,-0.5,-3,73*,1.4,6,10,1.3,-5,0,-3
CCC(=O)Nc1ccc(Cl)c(NC(=S)NC(=O)c2cc3ccccc3o2)c1,-0.5,-4,-1,6.7,8,10,0.0,0,-13,9
COc1ccc(CCNC(=O)CSc2nc(N)cc(=O)[nH]2)cc1OC,1.5,4,-4,3.2,19,17,-9.8,-6,6,-3
Cc1ccc(SCCNC(=S)Nc2cc(C)cc(C)c2)cc1,-0.2,-5,16,-1.5,x,x,x,x,1,-8
CCOC(=O)C1=C(CC)OC(N)=C(C#N)C1c1ccc(OC)c(C)c1OC (centres undefined),0.1,2,20,-1.8,x,x,x,x,-8,-3
CCNS(=O)(=O)c1ccc(NC(=S)NCC2CCCO2)cc1 (centres undefined),-0.3,-7,-1,5.1,10,0,-8.4,34,5,-5
O=C(Cc1ccc(Cl)cc1)NC(=S)Nc1ccccc1O,-0.2,2,-4,3.2,7,-2,5.0,-14,-3,-3
Cc1c(OCC(=O)N2CCC(C(N)=O)CC2)ccc2c1oc(=O)c1ccccc12,0.0,-7,-6,-2.1,19,16,0.2,-17,-1,-4
CC(=O)N(C(C)=O)c1c(N2CCCC2)c2ccccc2oc1=O,-0.1,-3,9,6.2,18,-3,0.7,0,-3,-3
COc1ccccc1NC(=O)CCSCCC(=O)Nc1ccccc1OC,1.2,-1,-6,-4.7,x,x,x,3,8,-9
FC(F)(F)c1cnc2c(-c3ccc(Cl)cc3Cl)noc2c1,0.7,-9,-3,2.2,x,x,x,-6,-3,-11
O=C(CCc1nc(-c2ccccc2)no1)Nc1cccc(C(=O)NC2CC2)c1,1.7,-6,x,-0.7,7,14,-0.2,28,x,-2
CC(C)NS(=O)(=O)c1ccc(NC(=O)C(C)OC(=O)CCC2CCCC2)cc1 (centres undefined),0.1,-7,x,2.5,-4,-32,-3.4,x,x,-3
CN1CCN(S(=O)(=O)c2ccc(N3CCc4ccccc4C3)nc2)CC1,-0.3,0,5,-2.7,11,9,-0.7,1,17,-2
Cc1ccn(C(=O)c2cc3ccccc3oc2=O)n1,0.2,x,-10,2.0,x,x,x,63,-4,3
N#Cc1ccccc1Sc1ccccc1C(=O)Nc1ccc2ccccc2c1,0.5,2,34,0.6,-11,-6,-3.1,-1,10,18
CCCn1nc(NC(=O)COC)c2cc3cccc(C)c3nc21,-0.5,-3,-6,0.9,-5,-21,-1.4,22,19,-15
CCCNC(=O)Cn1c(=O)/c(=C\c2ccc(-c3ccc([N+](=O)[O-])cc3)o2)s/c1=C\C(=O)C(C)(C)C,-0.5,x,5,-5.6,x,x,x,-24,13,3
CCSc1nnc(NC(=O)COc2ccccc2[N+](=O)[O-])s1,-0.5,-5,-7,-1.5,26,23,1.1,-2,-23,4
CN1C(=O)C(CC(=O)Nc2ccc(F)cc2)N(Cc2cccs2)C1=S (centres undefined),0.3,0,4,-3.6,-18,-10,-3.1,-6,-3,-6
CC(=O)N1CCc2cc(S(=O)(=O)NCCCN3CCCCC3)ccc21,-0.1,-3,3,0.5,-3,2,-0.9,-2,0,-7
CC(C)(C)Nc1nc(Oc2ccc(=O)[nH]n2)nc(N2CCOCC2)n1,-0.3,3,-9,-1.0,-4,-7,2.4,-2,-8,-4
CC(O)c1cccc(NC2=CC(=O)CC(C)(C)C2)c1 (centres undefined),0.5,-2,-4,3.7,x,x,x,30,5,-1
Cc1ccc(OCCCCNC(C)(C)C)c([N+](=O)[O-])c1,-0.6,7,4,-1.1,x,x,x,1,1,-2
COc1cc(Cl)nn(-c2ccccc2)c1=O,0.1,-8,-7,-1.9,x,x,x,2,u,0
CN1CCN(S(=O)(=O)c2ccc(NC(=O)c3ccc(F)cc3Cl)cc2)CC1,0.0,-5,-10,1.3,4,6,-1.8,-2,-4,2
CC(C)Nc1nc(-c2cccnc2)nc(-c2ccc(Cl)cc2)c1C#N,-0.5,12,48,1.6,11,16,-0.1,-14,1,17
C=Cn1nc(C)c2ccccc2c1=O,0.4,4,-2,-1.8,x,x,x,x,-4,-5
COc1ccc(CNc2cccc3[nH]c(C(F)(F)F)nc23)cc1,0.4,-4,29,-6.9,4,11,2.9,1,28,x
O=C(COc1ccc(F)cc1)N1CCC(c2ccccc2)C1 (centres undefined),-0.8,-12,-4,3.7,x,x,x,-19,-8,-4
CC1(C)CC(NC(=O)COc2ccc3ccccc3c2)CC(C)(C)N1,0.6,-1,7,-1.8,x,x,x,-91,-8,2
CSc1ccccc1NC(=O)c1cc2c(=O)n3ccccc3nc2s1,u,2,1,4.0,5,0,-0.1,-15,12,-1
COC(=O)CCC(=O)c1ccn(S(=O)(=O)c2ccccc2)c1,1.2,4,-6,8.8,4,-2,-0.2,x,5,x
Cc1ccc(OCC(=O)n2cnnc2N)c(C)c1,1.2,x,-10,0.7,x,x,x,-2,0,-3
COc1cc2nc(COc3ccccc3[N+](=O)[O-])oc(=O)c2cc1OC,1.0,7,-36,1.0,12,7,-0.4,x,55,-1

# Nothing new here: 2 of the compounds above.
SMILES,Bfl-1 A1 inh,Beta2AR agonist,T cruzi repl,LANA-H2A inh,rRNA inh HTS,rRNA inh HTS OD600,rRNA inh HTS RFP,ALR H2O2 inh,Calb FLC,Beta apoptosis
COc1ccccc1CNC(=O)c1cc(-c2ccccc2C)nn1CC1CC(c2cccnc2)=NO1 (centres undefined),-0.6,6,x,-1.1,x,x,x,-5,x,-7
O=C(Nc1ccc(C(=O)N2CCCCC2)cc1)c1cccc([N+](=O)[O-])c1,-4.4,0,16,-0.7,8,8,3.0,2,-6,3

# More entries follow:
SMILES,Bfl-1 A1 inh,Beta2AR agonist,T cruzi repl,LANA-H2A inh,rRNA inh HTS,rRNA inh HTS OD600,rRNA inh HTS RFP,ALR H2O2 inh,Calb FLC,Beta apoptosis
O=C(CSc1ncn[nH]1)c1ccc2c(c1)OCCO2,-0.1,-6,-12,1.0,x,x,x,20,13,-9
CC1Sc2ccc(C(=O)NCc3ccccn3)cc2NC1=O (centres undefined),0.5,2,x,0.0,5,2,-2.5,x,x,8
CCCC(C)C(=O)Nc1ccc(Cl)cn1 (centres undefined),-1.2,-7,10,4.7,x,x,x,1,1,1
COCCCNC(=S)N/N=C/c1ccc(O)cc1O,0.6,-5,4,-4.2,-5,6,-4.2,70,-5,6
CN(c1ccccc1)S(=O)(=O)c1cccc(NC(=O)C2=NN(c3ccccc3)C(=O)CC2)c1,0.2,-2,x,3.7,5,8,1.0,-2,x,8
COc1ccccc1C(c1nnnn1Cc1ccccc1)N1CCN(c2nc3ccccc3s2)CC1 (centres undefined),0.1,7,31,1.3,x,x,x,3,-1,-3
C=CCn1c(SCC(=O)c2c(N)n(C3CC3)c(=O)[nH]c2=O)nnc1-c1ccoc1C,-0.3,3,x,-0.5,1,2,-0.6,x,x,-3
O=C(NCCC(=O)N1CCC2(CC1)NCCc1[nH]cnc12)c1ccc(Br)cc1,-0.6,0,5,0.2,8,10,-0.3,-5,-2,-10
O=c1c2cnn(-c3ccccc3)c2ncn1Cc1ccccc1,-0.9,4,22,-2.0,x,x,x,0,u,4
Cc1ccc(Cn2ccc(NC(=O)c3cc(-c4cccc(Cl)c4)on3)n2)cc1,0.5,-7,6,3.7,9,17,-6.8,-2,5,11
CCCCCCOc1ccc(N2C(=O)CC(N3CCC(C(=O)OCC)CC3)C2=O)cc1 (centres undefined),-0.4,-2,1,2.5,x,x,x,-4,-1,-2
CCOC(=O)CNC(=O)CSc1nnc(Cn2c(=O)sc3ccccc32)n1C,0.5,-13,-4,-2.5,13,7,0.8,-4,10,0
O=C(NCc1ccc(Cl)cc1)c1cccc(NC2=NC3CS(=O)(=O)CC3S2)c1 (centres undefined),x,3,-2,1.4,6,9,0.5,-11,1,-16
CCc1ccc(S(=O)(=O)N/N=C\c2ccc3c(c2)OCO3)cc1,-0.9,6,3,5.5,-26,-31,-2.6,57,0,-4
N#Cc1nc(COc2ccc(F)cc2)oc1N1CCN(Cc2ccccc2)CC1,1.5,-7,x,0.6,x,x,x,-5,2,-2
CC1CCC(CN2C(Nc3ccccc3)=NC[C@@H]2Cc2ccccc2)CC1 (some centres undefined),-0.3,14,x,-5.2,-33,-66,26,-3,x,-9
Cn1nccc1NC(=O)Nc1cccc(Br)c1,0.0,10,-6,2.5,-11,1,4.0,-2,-4,-9
Cc1cccc(OCC(=O)NCc2ccccc2)c1,0.6,-2,2,5.8,11,9,2.1,-7,-6,-27
O=C(NCCN1CCOCC1)c1cccc(NS(=O)(=O)c2ccc(Br)cc2)c1,0.7,6,-1,x,2,10,-0.4,x,0,-3

# Some of the compounds tested, so the mix of outcomes need not match the whole.
